Assay outcomes as filed in PubChem BioAssay.
HNF4A DNA FP – change in binding of human HNF4 alpha to DNA; P41235; HNF4a-FITC DNA binding, fluorescence polarization, 1 h; activity change, % at 10 µM; 360,000 tested, 0.3% active; AID 1224865; in the data active = activity change above about 30%, passing the limit was not always enough;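 note: controls were the assay level and a saturating level of protein; the project sought stronger binding though the title names inhibitors; some compounds called inactive have numbers as strong as hits; positive values seem to mean higher polarization but the record does not say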
FGF22 binding – binders of recombinant human FGF22 by thermal shift. Q9HCT0. SYPRO orange fluorescence; percent of sucrose octasulfate shift, DMSO zero. calls only at 9.99 µM. AID 651658. 340,000 tested, 1.5% active;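 active = melting point raised past a set limit in the mean and every replicate; inconclusive = no clear call; three in four hits are not shown here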
Target sequence (Q9HCT0 whole entry, looked up): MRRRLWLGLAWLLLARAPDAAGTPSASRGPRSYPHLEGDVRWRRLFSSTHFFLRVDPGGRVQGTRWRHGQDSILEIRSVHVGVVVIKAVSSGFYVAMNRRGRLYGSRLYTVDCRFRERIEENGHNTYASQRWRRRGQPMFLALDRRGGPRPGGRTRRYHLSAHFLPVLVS
E coli growth – inhibitors of Escherichia coli growth | OD600 absorbance (no concentration beside the values) | AID 1053175 | 330,000 tested, 0.21% active | OD600, 23 h; stronger effect = lower value;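 active = OD600 absorbance below the run mean of sample wells minus 3.6 SD, in any replicate, cut at about 0.56 in these data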;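 note: stock transfer was 300 nL into about 60 µL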
ALR H2O2 inh – blocks human ALR sulfhydryl oxidase activity. 290,000 tested, 3.8% active. inhibition, % (no concentration beside the values). purified ALR, DTT oxidation, H2O2 HRP-luminol luminescence. P55789;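 active = mean and each replicate at 75% or more; inconclusive = only one of the two met; inactive = neither met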;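 note: stock transfer was 7.5 nL into about 7.5 µL; 0% = neutral wells and 100% = wells with inactivated enzyme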
Target sequence (P55789 whole entry, looked up): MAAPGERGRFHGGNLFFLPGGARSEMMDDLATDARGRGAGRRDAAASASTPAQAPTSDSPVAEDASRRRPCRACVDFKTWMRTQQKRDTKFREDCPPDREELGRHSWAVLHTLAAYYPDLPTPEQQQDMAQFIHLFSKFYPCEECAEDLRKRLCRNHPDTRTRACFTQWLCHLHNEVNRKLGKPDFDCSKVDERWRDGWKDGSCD
Vif A3G – HIV-1 Vif–A3G interaction blockers – biochemical, TR-FRET, GST-Vif 1-94, biotin-A3G peptide, dose response retest, primary screen (AID 1117319) | 260,000 tested, 0.57% active | TR-FRET GST-Vif / biotin-A3G peptide binding; higher % means a stronger effect; test concentration not given here; strong numbers were not always called active | inhibition, %; hits with a dose series show IC50 in µM;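 active = above the screen mean plus three standard deviations and confirmed in dose response; inconclusive = results disagree or hit not tested in dose response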;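 note: Vif residues 1-94 fused to GST binding biotinylated APOBEC3G peptide 110-148; 0% = full assay without inhibitor and 100% = GST in place of GST-Vif; retest series ran down from 100 µM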
Ecoli rRNA inh – selective bacterial rRNA inhibition in E. coli | GFP signal change (wild-type ribosome), % (test concentration not listed) | 350,000 tested, 1.6% active | AID 720706 | E. coli WT GFP vs humanized-ribosome RFP mutants, fluorescence, 24 h; stronger effect = lower value; DMSO median 0, no signal -100;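 active = significant combined selectivity score with lowered wild-type GFP, culture density cut under 30%, mutant RFP and density less affected; inactive = any of these conditions unmet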; note: one replicate is shown; some compounds called inactive have numbers as strong as hits
MLL AF4-AF9 inh – MLL-AF4/AF9 protein interaction inhibition | inhibition, % at 10 µM | AID 651704 | P42568 | AlphaScreen, biotin-AF4 peptide binding to FLAG-AF9 | 350,000 tested, 0.47% active;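 active = every replicate reaching a set inhibition limit, whatever the replicate mean, cut at about 25% in these data; inconclusive = mean inhibition reaches that limit but some replicates miss it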;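 note: 0% = plate neutral control median and 100% = total signal loss; the record names both 10 and 1 µM as test concentration; the first replicate is given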
Target sequence (P42568 whole entry, looked up): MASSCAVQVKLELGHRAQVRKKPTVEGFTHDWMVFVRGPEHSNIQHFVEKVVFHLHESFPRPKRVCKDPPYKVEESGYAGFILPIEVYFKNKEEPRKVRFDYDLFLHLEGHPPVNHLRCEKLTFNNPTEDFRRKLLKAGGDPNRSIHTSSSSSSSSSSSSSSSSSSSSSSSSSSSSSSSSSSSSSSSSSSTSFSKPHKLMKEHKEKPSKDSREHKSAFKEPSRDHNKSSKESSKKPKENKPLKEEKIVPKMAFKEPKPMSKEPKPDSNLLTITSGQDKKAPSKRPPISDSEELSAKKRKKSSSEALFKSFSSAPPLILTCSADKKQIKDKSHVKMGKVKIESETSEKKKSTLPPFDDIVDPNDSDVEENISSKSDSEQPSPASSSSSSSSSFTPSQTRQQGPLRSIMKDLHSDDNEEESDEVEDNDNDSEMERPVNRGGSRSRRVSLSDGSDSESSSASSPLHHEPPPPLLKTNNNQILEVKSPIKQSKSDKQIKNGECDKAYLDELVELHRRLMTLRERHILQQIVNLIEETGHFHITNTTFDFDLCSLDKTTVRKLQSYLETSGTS
Ecoli rRNA inh OD600 – further read-out of Ecoli rRNA inh, marked with its call; OD600 change, %; measured here: OD600 growth;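 optical density of the mix in the first replicate; 0 = DMSO median and -100 = no signal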
Ecoli rRNA inh RFP – recorded beside Ecoli rRNA inh, whose call it bears; RFP signal change, %; measured here: RFP humanized mutant strains;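 first replicate; 0 = DMSO median and -100 = no signal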
Starred values were filed as active, the others as inactive; i = inactive; ? = inconclusive; · = not tested or not shown. A portion of the library; the hit share may differ from the screen's.

SMILES	HNF4A DNA FP	FGF22 binding	E coli growth	ALR H2O2 inh	Vif A3G	Ecoli rRNA inh	Ecoli rRNA inh OD600	Ecoli rRNA inh RFP	MLL AF4-AF9 inh
C=CCSC1=C(C#N)C(c2ccccc2C)CC(=O)N1 (stereo not drawn)	-1.3	·	0.76	-10	-1%	·	·	·	·
c1ccc(N2CCN(c3nc4ccccc4n4cnnc34)CC2)cc1	0.0	i	0.72	97*	6%	-7	-7	7.3	-0.7
CCOc1cc(CNc2ccc(N(C)C)cc2)cc(Br)c1OCC(=O)NC(C)(C)C	1.0	·	·	45	?	·	·	·	·
C[C@H]1CN([C@@H](C)CO)C(=O)Cc2cc(NC(=O)c3ccncc3)ccc2O[C@H]1CN(C)S(=O)(=O)c1cccs1	·	i	·	·	·	-3	2	-1.8	-1.1
Cc1nc2ccccc2[nH]c1=O	0.6	i	0.69	-3	-4%	10	6	-2.8	8.9
COCC(=O)Nc1ccc2c(c1)[C@H]1C[C@H](CC(=O)NCc3ccccc3)O[C@H](CO)[C@H]1O2	·	i	·	·	·	0	2	-2.7	-1.8
Cn1cc(/C=N/n2cnc3scc(-c4ccc(Cl)cc4)c3c2=O)c2ccccc21	4.3	·	·	-13	0%	·	·	·	·
C=CCNC(=S)Nc1ccccc1	1.2	i	0.7	-3	0%	7	5	2.2	-17
O=C(CNC(=O)c1ccc(Br)o1)Nc1cccc(-c2cnc3ccccc3n2)c1	-1.0	·	0.69	8	-2%	·	·	·	·
CC(=O)Nc1ccc(NC(=O)COC(=O)c2c3c(nc4ccccc24)CCN(Cc2ccccc2)C3)cc1	3.2	i	0.68	-6	-1%	·	·	·	2.4
Cc1[nH]c(-c2ccco2)nc1C(=O)O	2.5	i	0.71	-10	?	12	7	-4.1	0.6
C[C@@H]1CN([C@H](C)CO)C(=O)c2ccccc2-c2ccccc2CO[C@H]1CN(C)C(=O)Nc1ccc2c(c1)OCO2	·	i	·	·	·	-1	-4	-8.3	2.7
CCN(C[C@H]1N[C@@](C)(C(=O)OC)[C@H]2C(=O)N(Cc3ccccc3)C(=O)[C@@H]12)C(=O)Nc1ccc(C)cc1	-2.8	i	0.68	1	8%	22	24	0.1	-4.1
O=C(N/N=C/c1cccnc1)c1ccccc1Cl	-1.2	i	·	-8	-9%	8	25	0.4	-0.7
Cc1cccc(S(=O)(=O)N[C@H]2CC[C@H](CCNS(=O)(=O)c3ccccc3F)O[C@@H]2CO)c1	·	i	·	·	·	-6	-5	-0.7	-1.5
O=C(O)c1cc(S(=O)(=O)NCCOc2ccccc2)ccc1Cl	-0.3	i	0.71	-5	·	5	6	-0.6	-0.4
Cc1ccc(-n2nc3c(c2NC(=O)c2ccco2)CS(=O)(=O)C3)cc1	-0.3	i	0.71	3	9%	14	10	2.5	0.5
O=C(Nc1ccccc1F)N1CCCCN2[C@H](CO)[C@@H](c3ccc(C#Cc4cccnc4)cc3)[C@@H]2C1	·	i	·	·	·	-6	-17	8.5	-6.0
COc1ccc(CCNc2cc(-c3ccccc3)nc3ncnn23)cc1	-1.5	·	0.75	-1	6%	·	·	·	·
C=CCC(COCc1ccccc1)NS(=O)(=O)c1ccccc1Br (stereo not drawn)	-4.1	i	0.64	1	·	-12	-32	-2.9	·
COc1ccccc1C(=O)NNC(=O)c1ccc(O)cc1	-3.1	i	·	·	-4%	15	7	0.5	-1.3
O=C(CCc1ccccc1)Nc1ccccc1OC(=O)c1ccccc1	-0.1	i	0.65	·	-3%	-18	-19	-3.3	-2.5
Cc1c(C(=O)NCc2ccc3c(c2)OCCO3)sc(=O)n1Cc1ccc(S(=O)(=O)N(C)C)cc1	2.2	i	·	·	·	1	0	-5.3	4.7
C[C@@H]1CN([C@H](C)CO)C(=O)Cc2cc(NC(=O)NC3CCCCC3)ccc2O[C@H]1CN(C)S(=O)(=O)c1ccc(Cl)cc1	·	i	·	·	·	1	1	1.7	-2.0
C[C@H](CO)N1C[C@H](C)[C@@H](CN(C)Cc2ccccc2F)Oc2ncc(C3=CCCCC3)cc2C1=O	·	i	·	·	·	2	12	1.4	13
CO[C@H]1CN(C)C(=O)c2ccc(NC(=O)Nc3ccccc3Cl)cc2OC[C@@H](C)NC[C@@H]1C	·	i	·	·	·	1	5	2.5	4.0
CCCc1nc2oc(C(=O)OCC)c(N)c2c2c1COC(C)(C)C2	1.3	·	0.68	-12	0%	·	·	·	·
O=C(CSc1cn[nH]n1)Nc1ccc(Cl)cc1Cl	0.8	i	0.69	-3	·	1	-3	0.0	-0.9
COc1cc(C=C2C(=O)OC(C)(C)OC2=O)cc(Cl)c1OCC(=O)Nc1ccccc1	-1.7	·	0.74	·	-11%	-1	-1	-3.6	-6.6
C/C=C/c1ccc([C@H]2[C@@H](CO)N(CC3CC3)C23CN(C(=O)c2ccc4c(c2)OCO4)C3)cc1	·	i	·	·	·	-10	-25	3.3	8.1
O=C(Nc1ccccc1-c1nnc(SCc2ccccc2Cl)o1)c1ccccc1	3.9	·	0.76	1	27%	-1	7	2.3	·
CO[C@H]1CN(C)C(=O)c2cc(NC(=O)CC(F)(F)F)ccc2OC[C@@H](C)N(C(=O)C2CC2)C[C@@H]1C	·	i	·	·	·	1	3	3.0	-5.7
Cc1ccccc1N1CCN(C2CCCN(C(=O)CN3CCCC3=O)C2)CC1 (stereo not drawn)	1.0	i	0.71	11	11%	3	-3	-0.6	0.4
CCCN(CCC)C(=O)CC(c1ccccc1)c1ccco1 (stereo not drawn)	3.5	i	0.68	24	10%	-15	-1	2.1	-1.1
C1=C(c2cccc3ccccc23)N2CCN=C2S1	0.8	·	0.74	3	-1%	·	·	·	·
CC(=O)NCCC(=O)Nc1nc2c(ccc3ccccc32)s1	1.0	i	0.71	0	·	1	-4	0.6	-2.2
CCCCCCCCN1C(=O)[C@@H](CC(=O)NCCCCc2ccccc2)C[C@@]2(C(=O)OC)C1=C[C@H](C1CCCC1)O[C@@H]2C	·	i	·	·	·	7	2	0.3	-0.8
Cc1ccccc1NC(=O)c1cccc(S(=O)(=O)Oc2ccc([N+](=O)[O-])cc2)c1	-1.5	·	0.7	-13	-1%	·	·	·	·
C[C@H]1CN([C@@H](C)CO)C(=O)Cc2cc(N(C)C)ccc2O[C@H]1CN(C)S(=O)(=O)c1ccc(Cl)cc1	·	i	·	·	·	-2	0	2.5	7.8
COc1cccc(CNC(=O)C[C@H]2C=C[C@@H](NC(C)=O)[C@H](CO)O2)c1	·	i	·	·	·	1	-2	-0.4	-2.9
Cc1cc(NC(=O)CSc2nnc3ccccn23)no1	1.9	i	0.66	-3	3%	13	16	1.4	-0.2
CC1CN(CCC(=O)Nc2ccccc2F)CC(C)O1 (stereo not drawn)	0.4	i	0.69	-5	·	4	0	17	2.5
N#CCCN(C(=O)COC(=O)C12CC3CC(CC(O)(C3)C1)C2)c1ccc(F)cc1	-2.2	i	0.68	0	-3%	0	4	-1.0	0.5
COc1ccc(C2NC(=O)NC3=C2CCc2ccccc23)cc1 (stereo not drawn)	-7.0	·	0.75	4	-2%	·	·	·	·
COCC(=O)N1[C@@H](CO)[C@@H]2c3ccccc3N(C(=O)c3ccccc3F)C[C@@H]21	·	i	·	·	·	3	8	-0.3	-0.3
CCc1ccc(-c2cc(C)no2)cc1S(=O)(=O)N1CCN(c2cc(C)ccc2C)CC1	-3.2	i	0.71	0	·	26	19	1.5	0.1
CN1C(=O)[C@H]2[C@@H](c3ccc(C(F)(F)F)cc3)N[C@]3(CCCN(Cc4ccc(C(F)(F)F)cc4)C3=O)[C@H]2C1=O	-2.8	i	·	·	·	-2	-20	-2.3	-6.3
CC(C)(O)C#Cc1ccc(CN2CCN(CCc3ccccc3)C(CCO)C2)s1 (stereo not drawn)	1.1	i	0.67	4	·	7	5	2.0	1.2
C[C@H]1CN([C@@H](C)CO)C(=O)c2cc(C#CCN(C)C)cnc2O[C@H]1CN(C)S(=O)(=O)c1cn(C)cn1	·	i	·	·	·	8	3	-1.2	-4.4
Cc1csc(NC(=O)CSc2nnc3c4ccccc4nc(C(C)(C)C)n23)n1	-3.1	·	0.69	4	-1%	-1	6	3.5	·

Of the compounds above, these contain a COOH group:
SMILES	HNF4A DNA FP	FGF22 binding	E coli growth	ALR H2O2 inh	Vif A3G	Ecoli rRNA inh	Ecoli rRNA inh OD600	Ecoli rRNA inh RFP	MLL AF4-AF9 inh
Cc1[nH]c(-c2ccco2)nc1C(=O)O	2.5	i	0.71	-10	?	12	7	-4.1	0.6
O=C(O)c1cc(S(=O)(=O)NCCOc2ccccc2)ccc1Cl	-0.3	i	0.71	-5	·	5	6	-0.6	-0.4

Remaining list, next part.
SMILES	HNF4A DNA FP	FGF22 binding	E coli growth	ALR H2O2 inh	Vif A3G	Ecoli rRNA inh	Ecoli rRNA inh OD600	Ecoli rRNA inh RFP	MLL AF4-AF9 inh
N#CC1(NC(=O)COC(=O)CNC(=O)c2sc3ccccc3c2Cl)CCCCC1	1.7	i	0.67	0	-15%	-21	-25	-1.5	3.8
CSc1ccccc1N=CC1=C(O)CC(C)(C)CC1=O	4.5	i	0.7	5	9%	6	1	-1.2	1.4
COc1cc(C(C)=O)ccc1OCC(=O)OCCCOC(=O)COc1ccc(C(C)=O)cc1OC	1.1	i	0.7	-4	·	1	-11	0.3	-7.0
O=C(C[C@@H]1CC[C@H]2NC[C@@H](O)COC[C@@H]2O1)NCCc1ccccc1	·	i	·	·	·	-1	2	0.6	-1.1
O=[N+]([O-])c1cccc(/C=N/N2CCN(c3ccccn3)CC2)c1	3.3	i	·	11	7%	·	·	·	-11
CC1=[N+]([O-])C(C)(C)C(C)N(O)C1=O (stereo not drawn)	1.2	·	0.72	4	5%	·	·	·	·
CCOC(=O)C1CCN(C(=O)c2ccc(SC)cc2OC)CC1	-2.4	·	0.73	0	1%	·	·	·	·
O=C1C=C(c2cc3ccccc3s2)CCC1	-5.7	·	0.69	6	·	·	·	·	·
COC(=O)CCSCC(=O)Nc1ccc(S(=O)(=O)N2CCOCC2)cc1OC	-0.3	·	0.71	-6	0%	7	5	0.2	-1.4
Cc1cc(C)n(-c2nc(NCCN(C)C)c3c4c(sc3n2)CCCC4)n1	1.2	i	0.62	·	-6%	-52	-44	-16	8.2
C[C@@H]1CCCCO[C@H](CN(C)C(=O)NC2CCCCC2)[C@H](C)CN([C@H](C)CO)C(=O)c2cc(NS(=O)(=O)c3cn(C)cn3)ccc2O1	·	i	·	·	·	-2	0	0.7	0.9
Oc1ccc(Cl)cc1/C=N/c1nc2ccccc2[nH]1	-0.7	·	·	-3	27%	·	·	·	·
CCC(Cc1ccccc1)NS(=O)(=O)c1csc(C(N)=O)c1 (stereo not drawn)	1.4	i	0.67	-3	-10%	6	4	0.2	-2.5
Cc1ccc(-n2c(SCC(=O)NCC3CCCO3)nc3ccccc3c2=O)cc1C (stereo not drawn)	-3.5	i	0.68	-6	-9%	0	10	-2.4	1.5
CCCC(=O)Nc1ccccc1NC(=O)CN(C)S(=O)(=O)c1ccc(C)cc1	0.6	·	0.7	-18	-4%	·	·	·	·
CCOC(=O)[C@]12CCCC=C1N(Cc1ccc3c(c1)OCO3)C(=O)[C@H](CC(=O)NCCCOC)C2	-1.6	i	·	·	·	7	17	5.1	0.7
CC1(C(=O)NS(=O)(=O)c2ccccc2Cl)CCN1C(=O)CC(c1ccccc1)c1ccccc1 (stereo not drawn)	-5.2	i	·	·	·	-13	0	8.5	-0.1
CCOP(=O)(OCC)C(NC(=O)Nc1cccc(Cl)c1)c1ccccc1 (stereo not drawn)	3.0	i	0.69	-4	6%	-16	-16	-5.1	-0.7
